Vaccinia stage – Vaccinia orthopox stage-specific inhibition; activity change (mCherry), % (test concentration not listed); 0.01% of 89,000 active; Vaccinia-infected cells, mCherry/Venus stage reporter fluorescence; active compounds read low; some inactives read as strong as hits;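 active = mCherry past -33% and 40 or more points under the early reporter, replicates agreeing; inconclusive = past -33% without that gap or agreement; tested in A549 cells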;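 note: scaled between vehicle wells and reference inhibitor wells; 23 nL library stock went into each well; one replicate is shown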
Vaccinia stage Venus – further read-out of Vaccinia stage, marked with its call; activity change (Venus), %; measured here: Venus reporter, other viral stage;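 negative = less Venus signal; first of two replicates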
* marks the source's active call; other numbers are inactive results.

How did CN1C(=O)c2cc(NC(=O)c3cccc(F)c3)ccc2OC[C@H]2O[C@H](CC(=O)N3CCc4ccccc4C3)CC[C@@H]21 do in these assays?
Vaccinia stage: -20; Vaccinia stage Venus: -14

Results for COc1cccc(-c2ccc([C@H]3[C@@H](CO)N4CCCCN(S(=O)(=O)c5cccs5)C[C@@H]34)cc2)c1 ?
Vaccinia stage: -27; Vaccinia stage Venus: -22

How did O=C(C1CCC1)N1CC[C@@H]2[C@@H](CO)Nc3ccc(C#Cc4ccc(F)cc4)cc3[C@@H]21 do in these assays?
Vaccinia stage: inconclusive

How did CCS(=O)(=O)Nc1ccc2c(c1)C(=O)N(C)[C@@H]1CC[C@@H](CC(=O)N3CCN(C)CC3)O[C@H]1CO2 do in these assays?
Vaccinia stage: 5; Vaccinia stage Venus: 16

How did Cc1ccc(-c2cnc3c(c2)C(=O)N([C@H](C)CO)C[C@@H](C)[C@@H](CN(C)C)O3)cc1 do in these assays?
Vaccinia stage: 7; Vaccinia stage Venus: 2

What do the screens show for `C[C@@H]1CN([C@@H](C)CO)C(=O)Cc2cc(NC(=O)CCCN(C)C)ccc2O[C@H]1CN(C)C(=O)Nc1ccc(F)cc1`?
Vaccinia stage: 11; Vaccinia stage Venus: 3

Results for COCC(=O)N1CC(=O)N2[C@H](CO)[C@H](c3ccc(Br)cc3)[C@@H]2C1 ?
Vaccinia stage: 11; Vaccinia stage Venus: -11

What do the screens show for `C[C@H]1CCCCO[C@@H](CN(C)Cc2ccc3c(c2)OCO3)[C@@H](C)CN([C@@H](C)CO)C(=O)c2cc(N(C)C)ccc2O1`?
Vaccinia stage: -33; Vaccinia stage Venus: -23

How did COc1ccc2c3c([nH]c2c1)[C@@H](CO)N(C(=O)c1ccccc1)CC31CCN(C)CC1 do in these assays?
Vaccinia stage: -11; Vaccinia stage Venus: -14

How did COc1ccc(S(=O)(=O)Nc2ccc3c(c2)CC(=O)N([C@@H](C)CO)C[C@H](C)[C@H](CN(C)S(=O)(=O)c2ccc(OC)cc2)O3)cc1 do in these assays?
Vaccinia stage: -2; Vaccinia stage Venus: 1

What do the screens show for `CS(=O)(=O)N1CC(=O)N2[C@H](CO)[C@@H](c3ccc(C#Cc4cccc(F)c4)cc3)[C@@H]2C1`?
Vaccinia stage: -30; Vaccinia stage Venus: -20

How did N#C[C@@H]1N[C@H](CO)[C@H]1c1ccccc1 do in these assays?
Vaccinia stage: 10; Vaccinia stage Venus: 7

Results for COCC#Cc1cnc2c(c1)C(=O)N([C@@H](C)CO)C[C@@H](C)[C@H](CN(C)C(=O)CN1CCOCC1)O2 ?
Vaccinia stage: 14; Vaccinia stage Venus: 11

Results for COc1ccc(S(=O)(=O)Nc2ccc3c(c2)C(=O)N([C@H](C)CO)C[C@@H](C)[C@H](CN(C)S(=O)(=O)c2ccc(Cl)cc2)OCCCC[C@H](C)O3)cc1 ?
Vaccinia stage: -24; Vaccinia stage Venus: -16

How did C[C@@H]1CN([C@H](C)CO)C(=O)c2c(c3ccccc3n2C)-c2ccccc2CO[C@@H]1CN(C)Cc1cccc(F)c1 do in these assays?
Vaccinia stage: inconclusive

How did C[C@@H]1CN([C@H](C)CO)C(=O)Cc2cc(NC(=O)CCN3CCOCC3)ccc2O[C@H]1CN(C)Cc1ccc(C(=O)Nc2ccccc2N)cc1 do in these assays?
Vaccinia stage: 23; Vaccinia stage Venus: -2

Results for C[C@H](CO)N1C[C@H](C)[C@@H](CN(C)C(=O)CN(C)C)Oc2cc(C#CCC3CCCC3)ccc2S1(=O)=O ?
Vaccinia stage: inconclusive

Results for OC[C@@H]1Nc2ccc(-c3ccccc3)cc2[C@@H]2[C@H]1CCN2Cc1ccc(F)cc1 ?
Vaccinia stage: -30; Vaccinia stage Venus: 35

How did C[C@H]1CCCCO[C@H](CN(C)CC2CC2)[C@@H](C)CN([C@@H](C)CO)C(=O)c2cc(NS(=O)(=O)c3ccc(F)cc3)ccc2O1 do in these assays?
Vaccinia stage: 4; Vaccinia stage Venus: -9

Results for C[C@H]1CN([C@@H](C)CO)C(=O)c2cc(-c3ccc(C(=O)N(C)C)cc3)cnc2O[C@@H]1CN(C)C(=O)c1cccnc1 ?
Vaccinia stage: 18; Vaccinia stage Venus: 2

What do the screens show for `C[C@H](CO)N1C[C@H](C)[C@@H](CN(C)C(=O)Nc2ccc3c(c2)OCO3)OCCCC[C@H](C)Oc2ccc(NS(=O)(=O)c3cccs3)cc2C1=O`?
Vaccinia stage: -7; Vaccinia stage Venus: -15

How did O=C(Nc1ccc(Cl)c(Cl)c1)N[C@H]1CC[C@H](CCn2cc(C3CC3)nn2)O[C@@H]1CO do in these assays?
Vaccinia stage: -4; Vaccinia stage Venus: 2

How did CCC(=O)N[C@H]1C=C[C@H](CC(=O)NCc2ccc(OC)cc2)O[C@@H]1CO do in these assays?
Vaccinia stage: 10; Vaccinia stage Venus: 6

What do the screens show for `CN1CCN(C(=O)C[C@@H]2CC[C@@H]3[C@@H](COc4ccc(NC(=O)c5cscn5)cc4C(=O)N3C)O2)CC1`?
Vaccinia stage: 8; Vaccinia stage Venus: 12

Reprinted at random: 2 records from the list, in no set order.
How did CCC(=O)N[C@H]1C=C[C@H](CC(=O)NCc2ccc(OC)cc2)O[C@@H]1CO do in these assays?
Vaccinia stage: 10; Vaccinia stage Venus: 6

Results for COc1ccc(S(=O)(=O)Nc2ccc3c(c2)C(=O)N([C@H](C)CO)C[C@@H](C)[C@H](CN(C)S(=O)(=O)c2ccc(Cl)cc2)OCCCC[C@H](C)O3)cc1 ?
Vaccinia stage: -24; Vaccinia stage Venus: -16

Additional entries
How did C[C@@H]1CN([C@@H](C)CO)C(=O)c2cc(NC(=O)Nc3cccc4ccccc34)ccc2O[C@H]1CN(C)Cc1ccc(-c2ccccc2)cc1 do in these assays?
Vaccinia stage: -2; Vaccinia stage Venus: -3

How did C[C@H](CO)N1C[C@H](C)[C@H](CN(C)C(=O)Nc2ccc(C(F)(F)F)cc2)Oc2ccc(NS(=O)(=O)c3ccc(F)cc3)cc2CC1=O do in these assays?
Vaccinia stage: -35; Vaccinia stage Venus: -12

Results for C#CCN(CC=C(C)C)[C@H](CO)c1ccccc1 ?
Vaccinia stage: 7; Vaccinia stage Venus: 8

Results for COc1ccc(NC(=O)N(C)C[C@H]2Oc3ncc(-c4ccc(C#N)cc4)cc3C(=O)N([C@H](C)CO)C[C@H]2C)cc1 ?
Vaccinia stage: 17; Vaccinia stage Venus: 8

Results for Cc1ccc(S(=O)(=O)N(C)C[C@@H]2Oc3ccc(NC(=O)C4CC4)cc3C(=O)N([C@@H](C)CO)C[C@H]2C)cc1 ?
Vaccinia stage: 1; Vaccinia stage Venus: 5

Results for COc1ccc(CN(C)C[C@@H]2Oc3ccc(NC(=O)Nc4ccccc4)cc3C(=O)N([C@@H](C)CO)C[C@@H]2C)cc1 ?
Vaccinia stage: -17; Vaccinia stage Venus: -8

How did CO[C@@H]1CN(C)C(=O)c2ccc(NC(=O)C3CCCC3)cc2OC[C@@H](C)N(C)C[C@H]1C do in these assays?
Vaccinia stage: 5; Vaccinia stage Venus: 0

How did CNC[C@H]1Oc2c(NS(=O)(=O)c3cccs3)cccc2C(=O)N([C@H](C)CO)C[C@@H]1C do in these assays?
Vaccinia stage: 4; Vaccinia stage Venus: 10

How did CCC(=O)Nc1ccc2c(c1)C(=O)N(C)[C@@H]1CC[C@@H](CC(=O)NCC3CC3)O[C@@H]1CO2 do in these assays?
Vaccinia stage: 19; Vaccinia stage Venus: 17

How did CC(=O)N(C)C[C@@H]1Oc2cc(-c3cccc(F)c3)ccc2S(=O)(=O)N([C@@H](C)CO)C[C@H]1C do in these assays?
Vaccinia stage: -11; Vaccinia stage Venus: 5

How did C[C@@H]1CN([C@H](C)CO)C(=O)c2cccc(NS(=O)(=O)c3cccs3)c2O[C@@H]1CN(C)C(=O)Nc1ccc2c(c1)OCO2 do in these assays?
Vaccinia stage: 1; Vaccinia stage Venus: 4

What do the screens show for `C[C@H]1CN([C@@H](C)CO)C(=O)c2cc(NS(=O)(=O)c3ccc(F)cc3)ccc2O[C@@H]1CN(C)Cc1ccc(Cl)c(Cl)c1`?
Vaccinia stage: inconclusive

Among those listed so far, these have a cyano group.
How did N#C[C@@H]1N[C@H](CO)[C@H]1c1ccccc1 do in these assays?
Vaccinia stage: 10; Vaccinia stage Venus: 7

Results for COc1ccc(NC(=O)N(C)C[C@H]2Oc3ncc(-c4ccc(C#N)cc4)cc3C(=O)N([C@H](C)CO)C[C@H]2C)cc1 ?
Vaccinia stage: 17; Vaccinia stage Venus: 8

The results go on:
Results for Cc1ccc(S(=O)(=O)Nc2ccc3c(c2)C(=O)N([C@H](C)CO)C[C@H](C)[C@@H](CN(C)Cc2ccc4c(c2)OCO4)OCCCC[C@@H](C)O3)cc1 ?
Vaccinia stage: inconclusive

How did N#Cc1cccc(-c2ccc([C@H]3[C@H]4CN(C(=O)Nc5cccc(F)c5)CCCCN4[C@H]3CO)cc2)c1 do in these assays?
Vaccinia stage: inconclusive

Results for C[C@@H]1CN([C@H](C)CO)C(=O)c2cc(NC(=O)NC3CCCCC3)ccc2O[C@H]1CN(C)S(=O)(=O)c1cn(C)cn1 ?
Vaccinia stage: 2; Vaccinia stage Venus: -8

What do the screens show for `C[C@@H]1CCCCO[C@@H](CN(C)S(=O)(=O)c2ccc(Cl)cc2)[C@H](C)CN([C@@H](C)CO)C(=O)c2cc(NC(=O)C3CCCCC3)ccc2O1`?
Vaccinia stage: -11; Vaccinia stage Venus: -4

What do the screens show for `C[C@H](CO)N1C[C@H](C)[C@H](CN(C)S(C)(=O)=O)OCCCC[C@H](C)Oc2ccc(NC(=O)NC3CCCCC3)cc2C1=O`?
Vaccinia stage: 13; Vaccinia stage Venus: 14

How did C[C@@H]1CN([C@H](C)CO)C(=O)CCCn2nncc2CO[C@@H]1CN(C)S(=O)(=O)c1ccc(-n2cccn2)cc1 do in these assays?
Vaccinia stage: 4; Vaccinia stage Venus: 9

What do the screens show for `Cc1noc(C)c1S(=O)(=O)N(C)C[C@H]1OCc2ccccc2-c2ccccc2C(=O)N([C@@H](C)CO)C[C@H]1C`?
Vaccinia stage: 16; Vaccinia stage Venus: 10

How did O=C(C[C@H]1C=C[C@@H](NC(=O)Nc2ccc(F)cc2)[C@@H](CO)O1)NCc1cccc(F)c1 do in these assays?
Vaccinia stage: -3; Vaccinia stage Venus: 2

What do the screens show for `COc1ccc2c3c(n(C)c2c1)[C@@H](CO)N(C(=O)C1CCOCC1)CC31CCN(C(=O)Nc2cccc(F)c2)CC1`?
Vaccinia stage: inconclusive

Results for C[C@H](CO)N1C[C@H](C)[C@H](CN(C)Cc2ccncc2)Oc2ccc(NC(=O)C3CCCCC3)cc2CC1=O ?
Vaccinia stage: 8; Vaccinia stage Venus: 6

What do the screens show for `CO[C@@H]1CN(C)C(=O)c2ccc(NC(=O)Nc3ccccc3F)cc2OC[C@@H](C)N(S(=O)(=O)CC(F)(F)F)C[C@H]1C`?
Vaccinia stage: -17; Vaccinia stage Venus: -7

How did C[C@@H]1CCCCO[C@@H](CN(C)C(=O)Nc2ccc(F)cc2)[C@@H](C)CN([C@H](C)CO)C(=O)c2cc(NC(=O)CCCCCC(=O)Nc3ccccc3N)ccc2O1 do in these assays?
Vaccinia stage: 19; Vaccinia stage Venus: 7

Part of the list above in order of heavy-atom count, rising.
How did O=C(Nc1ccc(Cl)c(Cl)c1)N[C@H]1CC[C@H](CCn2cc(C3CC3)nn2)O[C@@H]1CO do in these assays?
Vaccinia stage: -4; Vaccinia stage Venus: 2

How did CCC(=O)Nc1ccc2c(c1)C(=O)N(C)[C@@H]1CC[C@@H](CC(=O)NCC3CC3)O[C@@H]1CO2 do in these assays?
Vaccinia stage: 19; Vaccinia stage Venus: 17

What do the screens show for `COc1ccc2c3c(n(C)c2c1)[C@@H](CO)N(C(=O)C1CCOCC1)CC31CCN(C(=O)Nc2cccc(F)c2)CC1`?
Vaccinia stage: inconclusive

More results
Results for O=C(NCc1ccccn1)[C@@H]1[C@@H](CO)[C@@H]2Cn3c(ccc(/C=C/c4ccccc4)c3=O)[C@H]1N2CC1CC1 ?
Vaccinia stage: -5; Vaccinia stage Venus: 1

What do the screens show for `COc1ccc(NC(=O)Nc2ccc3c(c2)C(=O)N([C@@H](C)CO)C[C@H](C)[C@@H](CN(C)C(=O)Nc2cccc4ccccc24)OCCCC[C@@H](C)O3)cc1`?
Vaccinia stage: 2; Vaccinia stage Venus: 0

How did CC(C)NC(=O)Nc1ccc2c(c1)C(=O)N([C@@H](C)CO)C[C@@H](C)[C@H](CN(C)C(=O)CCC(F)(F)F)OCCCC[C@@H](C)O2 do in these assays?
Vaccinia stage: 9; Vaccinia stage Venus: -4

What do the screens show for `N#Cc1ccc(-c2ccc([C@H]3[C@H]4CN(C(=O)Cc5ccccc5)CCCCN4[C@H]3CO)cc2)cc1`?
Vaccinia stage: -28; Vaccinia stage Venus: -25

What do the screens show for `CCCN1C[C@@H](C)[C@@H](OC)CN(C)C(=O)c2cc(NC(=O)c3cnccn3)ccc2OC[C@H]1C`?
Vaccinia stage: 20; Vaccinia stage Venus: 17

Results for O=S(=O)(N[C@@H]1CC[C@@H](CCn2cc(Cc3ccccc3)nn2)O[C@@H]1CO)c1ccccc1F ?
Vaccinia stage: 1; Vaccinia stage Venus: 1

How did CC=Cc1ccc2n(c1=O)C[C@@H]1[C@@H](CO)[C@H](C(=O)N3CCOCC3)N(Cc3ccccc3OC)[C@H]21 (mixture of isomers) do in these assays?
Vaccinia stage: 2; Vaccinia stage Venus: 3

Results for C[C@H]1CN([C@@H](C)CO)C(=O)c2cc(NC(=O)Nc3ccc(C(F)(F)F)cc3)ccc2O[C@@H]1CN(C)Cc1ccccc1 ?
Vaccinia stage: -20; Vaccinia stage Venus: -11

What do the screens show for `Cc1noc(C)c1S(=O)(=O)N(C)C[C@@H]1Oc2ccc(NC(=O)Nc3ccc4c(c3)OCO4)cc2C(=O)N([C@@H](C)CO)C[C@@H]1C`?
Vaccinia stage: 15; Vaccinia stage Venus: 12

Results for C[C@@H]1CN([C@@H](C)CO)C(=O)c2cc(NC(=O)Cc3cn(C)c4ccccc34)ccc2O[C@H]1CN(C)S(=O)(=O)c1ccccc1 ?
Vaccinia stage: 8; Vaccinia stage Venus: 6

Screens deposited in PubChem BioAssay by Broad Institute.

Not all compounds are listed; the hit share may differ from the screen's.
